# Vaccinia mCherry: qHTS for Stage-Specific Inhibitors of Vaccinia Orthopoxvirus: mCherry Reporter Primary qHTS | Potency, µM (series often up to 36.5 µM), inactives show at the top dose activity change, negative = inhibition, actives largely listed as inhibitors | AID 720579, 2013 | 0.63% of 310,000 active | Vaccinia virus mCherry reporter infection, fluorescence; about a quarter of the inactives have no number; active = well fitted inhibition curve with a large enough effect; inconclusive = small, poorly fitted or top-dose-only effect; inactive = no such curve, though single readings can be large or run the other way; tested in A549 cells; further: nearly all actives have a fitted effect of over 35% in size; inactives centre near -10
# VACV Venus inh: qHTS for Stage-Specific Inhibitors of Vaccinia Orthopoxvirus: Venus Reporter Primary qHTS; Vaccinia virus Venus reporter expression, fluorescence; Potency, µM (titrated, usually from 36.5 µM), without a hit: at the top dose activity change, negative = inhibition, hits mostly inhibitors; 0.46% of 330,000 active; AID 720580, 2013; active means well fitted inhibition curve with a large enough effect; inconclusive means small, poorly fitted or top-dose-only effect; inactive means no such curve, though single readings can be large or run the other way; tested in A549 cells; further: nearly all actives have a fitted effect of over 30% in size; inactives centre near -10
# * = called active by the depositor; i = inactive; ? = inconclusive; / = no result given; [ ] = another dose, or the depositor's remark. On the % scale 0 is the no-effect control and ±100 the full control effect; potency means the concentration at half of the fitted maximal effect.
Compound	Vaccinia mCherry	VACV Venus inh
CC1Cc2ccccc2N1C(=O)COC(=O)c1ccc(S(=O)(=O)N(C)C)cc1 (stereo unspecified)	-4.4%	-12.7%
C[C@H]1CN(CCc2ccccc2)C(=O)[C@@H]1CC(=O)Nc1ccccc1	-3.9%	-9.4%
N#Cc1ccccc1Cn1c(=O)n(-c2ccc(F)c(Cl)c2)c(=O)c2sccc21	-11.0%	-9.4%
CCn1c(=N)n(Cc2ccccc2F)c2ccccc21	-13.1%	-29.7%
Cc1cc(C)c(S(C)(=O)=O)c(Oc2cccc(Cl)c2)n1	/	-15.0%
Cc1ccc(NC(=O)Cn2c(=S)[nH]c3ccccc32)cc1	i	-5.3%
O=C(Nc1nnc(C2CC2)s1)c1cccc(S(=O)(=O)N2CC(c3ccccc3)CC2=O)c1 (stereo unspecified)	i	-5.2%
CCCNC(=O)c1cc2nc(-c3ccc(Br)cc3)cc(C(F)(F)F)n2n1	-9.9%	-14.8%
CC(C)c1c(C#N)c(N)nc(SCC(=O)c2cc3ccccc3oc2=O)c1C#N	6.1%	4.9%
C=CCNC(=O)Cn1c(=O)c2c(ncn2CCC(C)C)n(Cc2ccccc2)c1=O	-11.0%	-10.3%
COCCn1c(C)cc(C(=O)CSc2cc(C)c3ccccc3n2)c1C	i	-17.2%
COc1ccccc1NC(=O)c1ccc(NC(=O)CSc2nnnn2C)cc1	-21.1%	-10.7%
CCOc1ccccc1N1CCN(S(=O)(=O)c2cccs2)CC1	-17.7%	-10.0%
CCOc1ccc(NC(=O)Cc2c(O)c3ccccc3[nH]c2=O)cc1	-25.8%	-16.3%
Cc1ccc(S(=O)(=O)Nc2ccc(-c3ccc4nncn4n3)cc2)cc1	?	-29.5%
Nc1ccn([C@@H]2O[C@H](C(=O)N3CCN(Cc4ccccn4)CC3)[C@@H](O)[C@H]2O)c(=O)n1	i	2.6%
Cc1ccc(-n2ncc(C(=O)Nc3ccc(C)c(F)c3)c2C2CCN(C(=O)OC(C)(C)C)CC2)cc1C	-20.9%	-14.3%
CCN(CC)CC(O)c1ccc2ccc3ccc(O)cc3c2c1 (stereo unspecified)	-11.6%	-26.9%
C=CCn1c(Br)nc2c1c(=O)n(C)c(=O)n2C	-13.5%	-1.2%
O=C1c2cccc3c(N4CCCCC4)ccc(c23)C(=O)N1c1cccc(O)c1	-19.1%	151.2%[activator]
Cc1c(N(C)S(=O)(=O)c2cccc(C(=O)NCc3cccnc3)c2)c(=O)n(-c2ccccc2)n1C	-0.1%	-4.0%
CCOC(=O)c1ccc(-n2ccnc2)c(NC(=O)c2ccc(C(C)(C)C)cc2)c1	-10.6%	-4.7%
O=C(O)[C@H](Cc1ccccc1)N1C(=O)c2c(Cl)c(Cl)c(Cl)c(Cl)c2C1=O	i	-16.3%
CC(=O)Oc1cccc(C(=O)O)c1OC(C)=O	i	-6.1%
CCC(=NNS(=O)(=O)c1ccc(C)cc1)c1ccc(OC)c(C)c1	i	-27.5%
O=C(OCCOc1ccccc1)c1cccc(S(=O)(=O)N2CCOCC2)c1	-15.4%	-7.6%
COc1cc(N2CN=c3s/c(=C\c4ccccn4)c(=O)n3C2)cc(OC)c1OC	-9.2%	-5.7%
CN(C)c1ccc(/C=C/[N+](=O)[O-])cc1	-2.4%	-10.1%
CCOc1ccc(N2C(=O)CC(N3CC(C)OC(C)C3)C2=O)cc1 (stereo unspecified)	-3.9%	-2.5%
Cc1c(CCO)c(=O)oc2n[nH]c(-c3ccccc3)c12	i	-5.0%

# Complete entries as entered above. Order of screens: Vaccinia mCherry, VACV Venus inh
# CC(=O)Oc1cccc(C(=O)O)c1OC(C)=O reads i, -6.1%
# CCC(=NNS(=O)(=O)c1ccc(C)cc1)c1ccc(OC)c(C)c1 reads i, -27.5%
# CCCNC(=O)c1cc2nc(-c3ccc(Br)cc3)cc(C(F)(F)F)n2n1 reads -9.9%, -14.8%

# Carrying on.
Compound	Vaccinia mCherry	VACV Venus inh
c1ccc(CCc2ccccn2)cc1	i	-12.4%
COc1cccc(NC(=O)CN(C)C(=O)c2ccccc2OCc2c(C)noc2C)c1	-13.1%	2.3%
CN(C)c1cccc(NC(=O)C2(C)Cc3c(-c4cccnc4)ccnc3O2)c1 (stereo unspecified)	4.0%	-5.1%
COc1ccc2ccc3ccc(OC)c(OC(C)=O)c3c2c1	?	-19.2%
COc1ccc(CCNS(=O)(=O)c2ccc3c(c2)CC(C)N3C(=O)C2CC2)cc1OC (stereo unspecified)	i	-9.5%
Cn1ncc(Oc2ccc([N+](=O)[O-])cc2)c(Cl)c1=O	?	-13.1%
COc1ccc(N2C(=O)CC(Sc3ccccc3C(=O)O)C2=O)c([N+](=O)[O-])c1 (stereo unspecified)	i	-2.5%
Cc1cc(C)c2c(c1)NC(c1cc3c(cc1Br)OCO3)C1CC=CC21 (stereo unspecified)	-9.5%	-27.4%
Cn1c(CCNC(=O)c2ccco2)nc2cc(NC(=O)COc3ccc(Cl)cc3)ccc21	-1.4%	-12.5%
COc1ccc(NC(=O)c2ccc(NC(=O)c3cccnc3)cc2)cc1	i	-9.9%
CN1CCN(S(=O)(=O)c2cccc(C(=O)N3CCc4ccccc43)c2)CC1	-4.3%	-11.3%
Cc1ccc(CNC(=O)c2ccc(-c3nc(CS(=O)c4ccccc4)c(C)o3)cc2)cc1 (stereo unspecified)	-20.8%	-4.1%
O=C(COc1ccc(S(=O)(=O)N2CCOCC2)cc1)N1CCOCC1	-0.1%	-10.1%
O=C(OCCN1C(=O)CCC1=O)c1ccc(S(=O)(=O)N2CCCCC2)cc1	/	-4.8%
Cc1cccc(-c2nc(SCC(=O)NCc3ccco3)c3c(=O)n(C)c(=O)n(C)c3n2)c1	-8.0%	-3.1%
CCCNCC1C(Oc2ccc(Cl)cc2)C(=O)N1c1ccccc1C (stereo unspecified)	-22.2%	-5.7%
O=C(NCCOc1ccccc1F)Nc1ccc(Br)cc1	i	-17.0%
CCN(CC)S(=O)(=O)c1ccc(C(=O)NNC(=O)C2COc3ccccc3O2)cc1 (stereo unspecified)	-14.7%	-2.7%
O=C(NC1CC1)c1cccc(-c2cncc3nccn23)c1	-25.5%	-15.0%
CCc1nc2c(OCc3ccccc3C(=O)OC)cccn2c1N(C)C(=O)CC(C)C	2.9%	11.4%
COC(=O)c1nn(-c2ccc(OC)cc2)c(=O)cc1O	-3.8%	4.3%
O=C(Nc1cccc(S(=O)(=O)Nc2ccc(Cl)cc2)c1)c1cc2c(s1)CCCC2	?	?
O=C(NCCCN1CCC(Cc2ccccc2)CC1)c1ccc(CS(=O)c2ccccc2Cl)o1 (stereo unspecified)	-3.7%	-16.3%
COc1cccc(C2CC(c3ccccc3)=NN2S(=O)(=O)c2ccc(C)cc2)c1OC (stereo unspecified)	?	-12.7%
CC1(C)CC(=O)C(N=Nc2cccc([N+](=O)[O-])c2)=C(O)C1	-4.2%[7.34 µM]	-9.2%[7.34 µM]
CCC(=O)c1ccc(OC(C)C(=O)NC2(C#N)CCCCC2)cc1 (stereo unspecified)	i	-11.1%
CSc1nc2nc(C(F)(F)F)cc(-c3ccccc3)n2n1	-29.5%	-18.2%
CCC(CC)C(=O)Nc1cccc(C(=O)Nc2ccc(S(N)(=O)=O)cc2)c1	-6.4%	-9.3%
COc1ccccc1-c1noc(CCCC(=O)NC2CCCCC2)n1	-10.8%	-15.2%
CNS(=O)(=O)c1cccc2cccnc12	-2.3%	-4.0%
CCOC(=O)C(C(=O)OCC)N(C#N)c1nc(SC)nc(N(C)C)n1	-3.2%	-1.7%
O=c1c2oc3ccccc3c2n(Cc2ccccc2Cl)c(=O)n1Cc1ccco1	-15.5%	-19.1%
O=C(Cc1ccc(Br)cc1)Nc1cccc(-c2cn3c(n2)SCC3)c1	-8.9%	-23.8%
CC(C)Oc1ccc(C(=O)NC(=S)Nc2ccc(CN3CCOCC3)cc2)cc1	i	9.1%
O=C(NCCCN1CCOCC1)C1CC(=O)N(c2ccccc2)C1 (stereo unspecified)	-11.9%	0.0%
Cc1cccc(NC(=O)CN(C)C(=O)Cc2ccc(-c3ccccc3)cc2)c1C	?	-19.4%
Cc1csc(CNC(=O)CC2C(=O)NCCN2Cc2ccc(F)cc2Cl)n1 (stereo unspecified)	-14.6%	-10.1%
CN(Cc1ccccc1)CC(O)CN(C)Cc1ccccc1	-17.0%	-8.1%
COc1ccc(C2(O)CCN(C(=O)NC3CCCCC3)CC2)cc1	-17.2%	-6.2%
COC(=O)c1c(NC(=O)/C=C/C(=O)O)sc(C)c1-c1ccc(C)c(C)c1	-26.3%	-20.1%
CC(NS(=O)(=O)c1ccc(Br)cc1)C(=O)Nc1nc2ccccc2[nH]1 (stereo unspecified)	-10.0%	-14.6%
CCC1CCCCN1C(=O)N[C@@H](CCSC)C(=O)OC (stereo partly specified)	/	-0.1%
O=C(NNC(=O)c1ccccc1Cl)c1csc(N2CCOCC2)n1	-2.1%	2.8%
O=C(NCc1ccc(N2CCCC2=O)cc1)C1CCC(=O)N(Cc2ccccc2F)C1 (stereo unspecified)	i	-9.9%
Cc1ccc(S(=O)(=O)N2CCOCC2)cc1C(=O)OCCOc1cccc(Cl)c1	-4.0%	-18.5%
CCOC(=O)Cn1cc2c(c1-c1ccc(Cl)cc1)c(=O)n(C)c(=O)n2C	-2.0%	-2.7%
CCN(CC)C(=S)SCC(=O)c1c(C)[nH]c2ccccc12	-17.2%	-22.7%
CS(=O)(=O)N1CCC(N2CCN(Cc3ccccc3)C(=O)C2=O)CC1	-8.5%	-0.9%
COc1ccccc1CP(=O)(c1ccccc1)c1ccccc1	i	-17.2%
CCc1nc2ccc(C(=O)NC3CCN(Cc4ccccc4)CC3)cn2c1N(C)Cc1cccs1	-10.4%	-26.8%
O=C(NC(=S)Nc1ccc(Oc2ccccc2)cc1)c1ccc(Cl)cc1	-28.7%	-29.4%
Cc1ccc(-c2noc(CCCC(=O)Nc3cccnc3)n2)cc1	-14.5%	?
OCc1cccc(-c2cnc3c(Nc4cccc(OC(F)(F)C(F)F)c4)nccn23)c1	?	?
Brc1c(CSc2nncc3ccccc23)nc2ccccn12	i	-18.8%
CCOC(=O)N1CCN(c2c(NCc3ccc(F)cc3)c(=O)c2=O)CC1	-19.6%	-7.9%
COc1ccc(C(=O)Nc2ccccc2C(=O)N2CCCCCC2)cc1OC	i	-17.3%
CS(=O)(=O)NN1C(=O)c2ccccc2NC1c1cccs1 (stereo unspecified)	i	-11.6%
Cc1[nH]c2ccccc2c1C(=O)CN1CCCCC1C (stereo unspecified)	/	-6.1%
Nc1c(Cl)cc(-c2csc(NC(CO)c3nc4ccccc4n3CCOCCO)n2)cc1Cl (stereo unspecified)	?	-21.5%
COc1ccccc1CC(=O)OC(C)C(=O)Nc1ccc(S(=O)(=O)N2CCCCC2)cc1 (stereo unspecified)	i	-15.4%

# Next structures:
Compound	Vaccinia mCherry	VACV Venus inh
Cc1ccc(S(=O)(=O)n2nc(OC(=O)c3cccc(F)c3)cc2N)cc1	-7.5%	-15.0%
Cc1nc2ccc(NC(=O)CS(=O)(=O)c3ccc(F)cc3)cc2s1	i	-19.2%
Cc1cc(C)n2nc(SCc3nnc(-c4cccs4)o3)nc2n1	i	-6.5%
S=c1[nH]c(-c2ccc(Br)cc2)cn1CCc1ccccc1	-0.8%	-3.0%
CC(O)(C(=O)Nc1ccc(S(=O)(=O)c2ccccc2)cc1)C(F)(F)F (stereo unspecified)	-6.8%	-8.7%[60.7 µM]
COc1ccc(/C=C2/C(=N)N3N=C(CC(=O)N4CCCC4)SC3=NC2=O)cc1	-11.8%	-3.8%
O=C(CBr)c1ccc(Oc2ccc(C(=O)C[n+]3ccccc3Cl)cc2)cc1	17.0%	-3.0%
COc1ccc(C(=O)Nc2cccc(C(=O)N3CCN(C)CC3)c2)cc1	/	-13.6%
CCCCc1c(O)nc(SCC(=O)N2CCOCC2)[nH]c1=O	i	-12.0%
CCOC(=O)C1CCN(C(=O)c2sc3nc(-c4ccc(F)cc4)cn3c2C)CC1	-17.8%	-19.5%
Cc1ccccc1NC(=O)c1cn(-c2ccccc2)nc1-c1ccccc1	-14.2%	-1.2%
COc1ccc(OC)c(NC(=O)Nc2ccccc2C)c1	/	-22.8%
CC(=O)c1ccc(C(=O)NC2CCCN(Cc3ccccc3F)C2)s1 (stereo unspecified)	-12.7%	-12.2%
O=C(Nc1cccc2cccnc12)c1csc([C@@H]2O[C@H](CO)[C@H](O)[C@H](O)[C@H]2O)n1	14.1%	4.6%
CCC(C)NCCOc1cccc(Br)c1 (stereo unspecified)	i	-10.1%
O=C(O)c1ccc(N2Cc3ccccc3C2)cc1O	-11.9%	-7.5%
CCOC(=O)c1ccc(N2CCN(c3cc(C)ccc3C)CC2)c(NC(=O)Nc2ccc(Cl)cc2)c1	0.6%	-4.4%
CC(C)C[C@H]1CNC(=S)N1CC1CCCN1C[C@H](CC(C)C)N1C[C@H](CC(C)C)N(CC2CCCCCC2)C1=S (stereo partly specified)	i	-11.3%
O=C(Cc1ccccc1)NCCCc1ccccc1	/	-15.5%

# Screens deposited in PubChem by National Center for Advancing Translational Sciences (NCATS).
